Assay outcomes (PubChem)
Rango release inh: inhibitors of RanGTP-induced Rango-importin beta complex dissociation; Biochemical FRET Rango-importin beta, RanGTP-induced dissociation; Potency, µM (highest dose often 46.1 µM), for inactives: at the top dose activity change, negative = inhibition; 340,000 tested, 0.071% active; AID 540253; active means falling FRET ratio curve, often poorly fitted, with flat reads before Ran was added; inconclusive means other falling curves, or compound fluorescence or quenching; inactive means flat or rising ratio curve;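 further: potency means the concentration at half of the fitted maximal effect; % of control where 0% means no effect; nearly all actives have a fitted effect of over 45% in size; -100% = wells without RanGTP and RCC1; the record marks most hits as doubtful in a second field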
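Two FRET readings bracket the reaction: one 5 min after compound meets Rango–importin beta, another 45 min after RanGTP-RCC1 (0.6 uM Ran, 0.2 uM RCC1, 2 mM GTP) is added. Only the second defines inhibition.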
miR-21 reporter: raises the signal of a miR-21 reporter; Potency, µM (highest dose often 38.3 µM), for inactives: at the top dose reporter change, positive = more light; 340,000 tested, under 10 active; HeLa miR-21 FLuc reporter, luciferase, 48 h; AID 2288; active = well fitted rising curve with a large enough effect; inconclusive = small, poorly fitted or top-dose-only effect; inactive = no such curve, though single readings can be large or run the other way;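 further: % of control where 0% means no effect; miR-21 action dims this reporter so a rising signal means less miR-21 action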
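Using DMEM plus 10% FBS, HeLa miR-21-FLuc cells are incubated with test compounds (final up to about 40uM) for 48 hours; firefly luciferase signal is then imaged following reagent-mediated lysis.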
GLA inh pH 4.5: blocks human alpha-galactosidase A at pH 4.5; 230,000 tested, under 10 active; P06280; activity change, negative = inhibition, % at 105 µM; purified enzyme, 4-MU-alpha-Gal fluorescence, pH 4.5; inconclusive = small, poorly fitted or top-dose-only inhibition, or a rising curve; inactive = flat fitted curve, though single readings scatter; no compound was filed as active;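 further: 0% = full activity with enzyme and -100% = basal without enzyme; dose as in the result columns while the protocol names 77 µM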
Rango-impB inh: Rango-importin beta binding inhibition; Rango CFP/YFP FRET sensor + importin beta, 45 min; Potency, µM (doses to about 92.2 µM), inactives show top-dose inhibition of complex formation; 340,000 tested, 0.031% active; AID 540263; active = rising FRET ratio curve, often small or poorly fitted; inconclusive = mostly compound fluorescence or quenching in the first reads; inactive = flat curves in all reads;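 further: potency means the concentration at half of the fitted maximal effect; 0% = DMSO wells and 100% = buffer wells lacking importin beta; nearly all actives have a fitted effect of over 15% in size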
Target sequence (Q14974 whole entry, looked up): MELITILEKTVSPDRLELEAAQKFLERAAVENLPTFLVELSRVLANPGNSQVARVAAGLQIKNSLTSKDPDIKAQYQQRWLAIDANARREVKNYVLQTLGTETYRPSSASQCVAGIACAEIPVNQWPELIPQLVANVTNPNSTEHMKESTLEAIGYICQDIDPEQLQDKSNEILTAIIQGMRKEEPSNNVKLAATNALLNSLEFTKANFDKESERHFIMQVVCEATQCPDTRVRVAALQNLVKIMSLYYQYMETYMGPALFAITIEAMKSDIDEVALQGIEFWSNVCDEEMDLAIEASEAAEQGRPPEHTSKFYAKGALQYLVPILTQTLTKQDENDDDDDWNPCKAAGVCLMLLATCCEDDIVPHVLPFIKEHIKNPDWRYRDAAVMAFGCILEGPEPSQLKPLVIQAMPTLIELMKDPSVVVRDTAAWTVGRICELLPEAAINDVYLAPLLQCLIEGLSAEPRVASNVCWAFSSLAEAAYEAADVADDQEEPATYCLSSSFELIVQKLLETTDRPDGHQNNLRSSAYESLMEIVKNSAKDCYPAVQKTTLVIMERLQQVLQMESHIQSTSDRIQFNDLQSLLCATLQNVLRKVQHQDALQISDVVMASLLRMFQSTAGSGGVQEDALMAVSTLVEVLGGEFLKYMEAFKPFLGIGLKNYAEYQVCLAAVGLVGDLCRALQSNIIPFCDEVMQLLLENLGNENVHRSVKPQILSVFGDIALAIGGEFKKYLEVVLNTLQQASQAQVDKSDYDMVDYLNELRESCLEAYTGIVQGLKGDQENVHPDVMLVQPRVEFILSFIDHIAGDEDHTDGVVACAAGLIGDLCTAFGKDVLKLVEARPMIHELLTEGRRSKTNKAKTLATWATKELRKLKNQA
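Inhibition scored from the CFP 486 nm/YFP 530 nm FRET ratio 45 min after adding 0.125 microM importin beta to 50 nM Rango biosensor preincubated 5 min with compound (room temperature, PBS with DTT, Tween-20, BSA). No-importin wells as positive control.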
Active calls of the source: *; ? = inconclusive; . = no result given. An excerpt. The share of hits here may be higher or lower than overall.

SMILES | Rango release inh | miR-21 reporter | GLA inh pH 4.5 | Rango-impB inh
O=c1[nH][nH]c(-c2ccccc2)c1C=Nc1ccc(Cl)cc1 | 17% | -2% | 4 | 0.0%
COc1ccc2oc(C)c(NC(C)=O)c2c1 | -11% | 0% | -1 | 2.7%
COc1cc(NC(=O)c2ccccc2Cl)c2ncccc2c1 | -6% | 8% | . | 0.5%
COC(=O)c1cc(C(=O)OC)cc(N2C(=O)CC(NNC(=O)c3ccccc3Br)C2=O)c1 (stereo not drawn) | 1% | -1% | 2 | 11%
CC1CCc2c(sc3ncnc(SCC(=O)N4CCN(C(=O)c5ccco5)CC4)c23)C1 (stereo not drawn) | . | -1% | 7 | .
O=C(CN1CCC(n2nnc3cc(F)ccc32)CC1)NC1CCCCC1 | 2% | -8% | 1 | -0.6%
Clc1ccccc1N1CCN(Cc2c[nH]c3ccccc23)CC1 | 1% | . | . | 6.0%
CC1CCCCC1NC(=O)NC(=O)CCl (stereo not drawn) | 16% | 19% | 3 | 0.0%
O=C(CSc1ccc(Cl)cc1)Nc1cccc(-c2nc3ccccc3[nH]2)c1 | 20% | -17% | -3 | -2.4%
CCCCCCC(NC(=O)Cc1ccc2ccccc2c1)C(=O)O (stereo not drawn) | 7% | . | . | 2.6%
O=C(OCn1nnc2ccccc2c1=O)c1ccc2ccccc2n1 | -12% | -9% | -13 | 5.0%
C=CCN1C(=O)C(Cc2cccc(Cl)c2)S/C1=N/N=C/c1ccco1 (stereo not drawn) | 5% | -6% | 6 | 0.1%
Cc1cc(C)n(C)c(=O)c1C#N | -5% | -1% | -4 | -3.8%
O=C(CSCCS(=O)(=O)c1ccc(Cl)cc1)Nc1ccccc1 | 7% | -4% | 2 | 0.4%
COc1ccccc1N(C(=O)c1snc(C(N)=O)c1N)C(C(=O)NC1CCCCC1)c1cccc(OC)c1OC (stereo not drawn) | -2% | 12% | . | -2.4%

Complete entries, quoted from the list.
Entry for `COC(=O)c1cc(C(=O)OC)cc(N2C(=O)CC(NNC(=O)c3ccccc3Br)C2=O)c1` (stereo not drawn) → Rango release inh: 1%; miR-21 reporter: -1%; GLA inh pH 4.5: 2; Rango-impB inh: 11%
Entry for `COc1ccc2oc(C)c(NC(C)=O)c2c1` → Rango release inh: -11%; miR-21 reporter: 0%; GLA inh pH 4.5: -1; Rango-impB inh: 2.7%

The results go on.
SMILES | Rango release inh | miR-21 reporter | GLA inh pH 4.5 | Rango-impB inh
COCCNC(=O)c1ccccc1NC(=O)COc1ccccc1 | 26% | -7% | -3 | 0.2%
CC(C)N1CCC(N2CCN(Cc3ccc4nsnc4c3)CC2CCO)CC1 (stereo not drawn) | 6% | 3% | 7 | -1.0%
c1csc(-c2nnc(NC3CCCCC3)c3ccccc23)c1 | 12% | -1% | 0 | 1.8%
Nc1cccc(-c2nc3cc(S(=O)(=O)c4ccc5oc(-c6cccc(N)c6)nc5c4)ccc3o2)c1 | 0% | -2% | 0 | -0.9%
CN(CC(=O)Nc1ccc(F)cc1)C(=O)Cn1nnc(-c2ccccc2)n1 | -18% | -7% | . | -2.1%
Cc1ccc(C)c(N2CCN(C(=O)C3CCN(S(=O)(=O)c4c(C)noc4C)CC3)CC2)c1 | 10% | ? | -6 | 4.0%
O=C(CSc1nnc(C2COc3ccccc3O2)o1)N1CCOCC1 (stereo not drawn) | -6% | -6% | -2 | -1.4%
C/C=C/C1=CC(=O)C[C@H](c2ccc(Cl)cc2)C1 | 4% | . | . | ?
Cc1cc(C)c(-c2csc(NC(=O)C3=NN(c4ccccc4)C(=O)CC3)n2)c(C)c1 | 13% | 17% | -11 | -0.2%
Cc1ccccc1CN(c1ccc(C(=O)N/N=C/c2ccc(OCC(N)=O)cc2)cc1)S(C)(=O)=O | -6% | -4% | -3 | -5.3%
NS(=O)(=O)c1ccc(NC(=S)NCc2ccccc2)cc1 | 19% | -3% | -8 | 0.4%
Cc1cc(C)cc(NC2=CC(=O)CC(c3ccco3)C2)c1 (stereo not drawn) | -15% | 0% | -1 | -0.7%
Cc1ccc(S(=O)(=O)NC(=O)NCc2ccco2)cc1 | -1% | . | . | 4.6%
COCCCn1nnnc1SCC(=O)Nc1nc(C)c(C)s1 | 0% | -12% | -10 | 2.6%
Cn1c(SCC(=O)N(C2CCCCC2)C2CCCCC2)nnc1-c1cccs1 | -1% | -2% | -5 | -5.1%
COc1ccc(-c2nc(CS(=O)CC(=O)NCc3ccc4c(c3)OCO4)c(C)o2)cc1OC (stereo not drawn) | 9% | 1% | . | 2.6%
COc1ccc(CNC(=O)Cc2c(C(=O)O)[nH]c3ccccc23)cc1 | -21% | 0% | -8 | -4.2%
COc1cc(/C=C2/C(=O)NN(c3ccc(F)cc3)C2=O)cc(Cl)c1O | 2% | -5% | . | -2.7%
Cn1c(Cn2c(C(F)(F)F)nc3ccccc32)nc2ccccc21 | -4% | 0% | -9 | -1.8%
O=C(O)CCC(=O)OCCc1cc2ccccc2c(=O)o1 | 1% | . | . | -0.1%
CNC(=S)Nc1ccc(OC)c(OC)c1 | -2% | -1% | 2 | -1.2%
CCOC(=O)COc1nc(N(C)C)nc(N(C)C)n1 | 10% | 0% | -11 | -0.1%
COc1ccc(NC(=O)[C@H](C)NC(=O)C2CCN(S(=O)(=O)c3ccc(C)cc3)CC2)cc1OC | 30% | 0% | . | 6.3%
CCN(CC)CCNC(=O)c1cc(Nc2ccc(OC)c(OC)c2)nc2ccccc12 | 0% | 3% | . | -0.5%
Cc1cc(C)c(NC2=CC(=O)CC(C)(C)C2)c(C#N)c1 | 7% | 0% | 1 | -0.6%
NC(=O)c1ccc(SCC(=O)NC2CCCCC2)c([N+](=O)[O-])c1 | 6% | 3% | -3 | -0.3%
CCCSc1nc(=O)n2cc(C)ccc2n1 | -16% | -37% | -4 | -1.7%
CC(C)(C)CNC(=O)c1cccc2c1C(=O)c1ccc(N3CCCC3)cc1S2(=O)=O | ? | . | . | ?
COc1ccc(NC(=O)CNC(=O)c2cccs2)cc1Cl | 15% | -21% | 7 | -0.5%
Cc1c(CCNC=O)cc(C)c2c3c(oc12)CCCC3 | 1% | . | . | 1.6%
CCC(C)NC(C(=O)Nc1ccc(Cl)c([N+](=O)[O-])c1)c1ccccc1 (stereo not drawn) | 15% | -4% | 3 | 1.9%
COc1ccc(OCc2nnc(SCC(=O)Nc3cccc(C(C)=O)c3)o2)cc1 | 9% | . | . | 0.9%
Cc1ncc(CN2CCN(C3CCCC3)C(CCO)C2)s1 (stereo not drawn) | 1% | 1% | -8 | 2.5%
COc1cccc(OC)c1NC(=O)CN(C)S(=O)(=O)c1ccc2c(c1)OCCO2 | -8% | -2% | . | -1.0%
Cc1cc(C)nc(/N=C(\N)Nc2ccc(F)c([N+](=O)[O-])c2)n1 | 7% | 9% | -6 | 1.6%
Cc1cccc(C)c1NC(=O)CN(C)C(=O)c1cccc(NS(=O)(=O)c2ccccc2)c1 | 11% | . | . | 11%
N/C(=N/O)c1ccccc1N1CCC(Cc2ccccc2)CC1 | -11% | 23% | -6 | -1.4%
COc1ccc2c(c1)C=C(CN1CCN(C(C)C)C(CCO)C1)CO2 (stereo not drawn) | -13% | -3% | -7 | -0.1%
CC(C)(C)C(=O)NCCc1nc2ccccc2n1CC(=O)c1ccccc1 | -5% | -13% | 3 | -2.8%
CCN(Cc1nc(-c2cccc(C)c2)no1)C(=O)c1ccco1 | 27% | -30% | . | -0.8%
CCOCCCn1c(SCC(=O)Nc2ccc3[nH]c(=O)[nH]c3c2)nc2ccccc2c1=O | 5% | . | . | 3.6%
Cc1cccc(C(=O)NCC(=O)OCC(=O)c2cc(C)n(CC3CCCO3)c2C)c1 (stereo not drawn) | 48% | -25% | 3 | 0.1%
O=C(COc1cc(F)ccc1[N+](=O)[O-])Nc1cccc(S(=O)(=O)NC2=NCCC2)c1 | -2% | . | . | -2.7%
COC(=O)c1ccc(C2CC(=O)Nc3cc(OC)c(OC)cc32)cc1 (stereo not drawn) | 22% | -20% | -2 | -2.7%
Cc1c(N(C(=O)Nc2ccccc2)C2=NCC(C)S2)c(=O)n(-c2ccccc2)n1C (stereo not drawn) | 6% | -13% | 2 | -1.2%

Four entries already listed, sorted by SMILES length, highest first.
SMILES | Rango release inh | miR-21 reporter | GLA inh pH 4.5 | Rango-impB inh
Cc1cccc(C)c1NC(=O)CN(C)C(=O)c1cccc(NS(=O)(=O)c2ccccc2)c1 | 11% | . | . | 11%
Cc1cc(C)nc(/N=C(\N)Nc2ccc(F)c([N+](=O)[O-])c2)n1 | 7% | 9% | -6 | 1.6%
COc1ccc(OCc2nnc(SCC(=O)Nc3cccc(C(C)=O)c3)o2)cc1 | 9% | . | . | 0.9%
CC(C)(C)C(=O)NCCc1nc2ccccc2n1CC(=O)c1ccccc1 | -5% | -13% | 3 | -2.8%

(cont.)
SMILES | Rango release inh | miR-21 reporter | GLA inh pH 4.5 | Rango-impB inh
CCC1=NN2C(=N)/C(=C\c3ccc(SCc4ccco4)o3)C(=O)N=C2S1 | -21% | -9% | -6 | ?
CCCCC(=O)Nc1ccc(NCc2ccc(C)s2)cc1 | 0% | -7% | . | -3.9%
O=C(CSc1nc(=O)n(CCCN2CCOCC2)c2c1CCC2)Nc1ccccc1F | 5% | . | . | -2.2%
C#Cc1ccc([C@@H]2C=C(C(=O)O)O[C@H](OCCCCO)C2)cc1 | -15% | -3% | 3 | 3.1%
COc1ccccc1NC(=O)CCN1C(=O)C2C3CCC(C3)C2C1=O (stereo not drawn) | -2% | -3% | . | -0.1%
COc1ccc(S(=O)(=O)Nc2ccccc2C(=O)N2CCCC2)cc1C | 0% | 2% | . | -1.8%
CCCCN1CC(=O)N2[C@H]3c4cc(Cl)ccc4OC[C@@H]3[C@H](c3ccccc3)[C@]2(C)C1=O | -4% | . | . | -0.4%
Cc1ccc(CNC(=O)c2ccccc2N)cc1 | 1% | -20% | -3 | -2.5%
CCCOc1ccc(-c2cn3ccccc3n2)cc1 | 14% | 26% | -2 | 2.2%
CCN(Cc1ccccc1)C(=O)COC(=O)c1cc(Cl)nc(Cl)c1 | 1% | -1% | -7 | 2.3%
CC(C)NC(=O)C1CCN(C2CCN(Cc3ccc4cccc(F)c4n3)CC2)CC1 | -12% | 0% | -1 | 0.6%
CC(Sc1nnc2ccccn12)C(N)=O (stereo not drawn) | 1% | 0% | 1 | 2.9%
Cc1sc2nc(SCCO)n(-c3ccccc3)c(=O)c2c1C | 2% | -3% | . | 3.0%
CCOC(=O)C1=C(N)c2ccccc2CC1C1CCCC1 (stereo not drawn) | -1% | 2% | -1 | -0.6%
Cc1cc(C)nc(SCC(=O)N/N=C\C(Br)=C\c2ccccc2)n1 | 9% | -6% | 3 | -2.6%
Cc1ccc(C(OCC(O)CNC(CO)C(O)c2ccc([N+](=O)[O-])cc2)c2ccccc2)cc1 (stereo not drawn) | 3% | -1% | . | 4.8%
O=C(COc1ccc(Br)cc1)NCCO | 6% | -2% | 11 | 1.9%
O=C(O)/C=C/c1cccnc1 | 2% | 0% | 0 | -0.4%
O=C1CN(C(=O)c2ccccc2[N+](=O)[O-])C(c2ccccc2)c2cc(Br)ccc2N1 (stereo not drawn) | -11% | 16% | . | 0.8%
CC(=O)N(c1ccc2oc(=O)sc2c1)S(=O)(=O)c1ccccc1 | -28% | -2% | 3 | 2.6%
COC(=O)C1=C(CS(=O)(=O)c2ccc(Cl)cc2)NC(=O)NC1c1ccc(O)c(OC)c1 (stereo not drawn) | -2% | 0% | . | 2.3%
CCC(C)Nc1nnc(SCC(=O)c2c(N)n(C3CC3)c(=O)[nH]c2=O)s1 (stereo not drawn) | 0% | . | . | -3.1%
Cc1ccc(CCNC(=O)C2CC(c3ccccc3[N+](=O)[O-])=NO2)cc1 (stereo not drawn) | 13% | -4% | -2 | 1.6%
Cn1cc(CNCc2ccc(-n3cccn3)cc2)c(-c2ccccc2F)n1 | 2% | -2% | 3 | 0.9%
COc1cc(NC(=O)COC(=O)c2cc(S(=O)(=O)N3CCOCC3)ccc2F)cc(OC)c1 | 20% | . | . | 2.3%
O=S1(=O)CCC(NC(=S)Nc2ccccc2)C1 (stereo not drawn) | 1% | 2% | 1 | 1.4%
CCCNC(=S)NNC(=O)c1cc(C2CC2)nc2ccccc12 | -7% | 7% | . | 4.4%
Cc1cccc(C)c1NC(=O)C1(C)c2cccc[n+]2CC(=O)N1Cc1cccs1 (stereo not drawn) | 20% | 3% | -2 | ?
